# High-throughput results deposited in PubChem by several laboratories.
# INS promoter inh = inhibitors of insulin promoter-driven GFP, primary screen, imaging, TRM-6 cells (human fetal islet line), eGFP reporter, cell count; inhibition, % at 2 µM; reporter expression induced with tamoxifen; 130,000 compounds, 0.9% hits;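 active = inhibition above the mean plus 3 SD, with well images judged a real hit on visual review, cut at about 60% in these data, passing the limit was not always enough; inconclusive = inhibition over the cutoff but images rejected on review; inactive = inhibition not above the cutoff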
# RGS16-Gao HTS = modulators of RGS16 binding to Galphao, primary screen, biochemical, human proteins, multiplexed bead flow cytometry | bead-based flow cytometry RGS16-Galphao binding, fluorescence; actives lie on both sides | 220,000 compounds, 0.38% hits | binding response (% of control), % at 10 µM | Regulator of G-protein signaling 16 (Homo sapiens) + Guanine nucleotide-binding protein …;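 active = below 25% or above 175%, edge rows of some plates excepted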;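 note: Galphao activated by GDP with aluminum fluoride before binding; 100% = wells without compound and 0% = beads without RGS; some results beyond the cut were filed as inactive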
# HSV replic up = enhancers of HSV replication in host cells, fold increase, host cell viability. AID 1956, 2009. 220,000 compounds, 0.005% hits. maximum fold increase. HSV replication augmentation in cells;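 active = peak rise of 1.5-fold or more in the series; inconclusive = self-fluorescent or not available for retest; tested in PC3 cells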;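 note: first round at 10 µM; read as green reporter fluorescence; hits show the peak of a series up to 25 µM; 1 = signal of infected wells without compound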
# PKD1 kinase inh = inhibitors of human PKD1 kinase, biochemical, fluorescence polarization; PKD1 kinase fluorescence polarization assay; inhibition, %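 (about 10 µM by stock and volumes)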; Serine/threonine-protein kinase D1 (Homo sapiens), Q15139; 200,000 compounds, 0.056% hits;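 active = inhibition of 50% or more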;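 note: controls were vehicle for no effect and a reference inhibitor for full effect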
# Target sequence (Q15139 whole entry, looked up): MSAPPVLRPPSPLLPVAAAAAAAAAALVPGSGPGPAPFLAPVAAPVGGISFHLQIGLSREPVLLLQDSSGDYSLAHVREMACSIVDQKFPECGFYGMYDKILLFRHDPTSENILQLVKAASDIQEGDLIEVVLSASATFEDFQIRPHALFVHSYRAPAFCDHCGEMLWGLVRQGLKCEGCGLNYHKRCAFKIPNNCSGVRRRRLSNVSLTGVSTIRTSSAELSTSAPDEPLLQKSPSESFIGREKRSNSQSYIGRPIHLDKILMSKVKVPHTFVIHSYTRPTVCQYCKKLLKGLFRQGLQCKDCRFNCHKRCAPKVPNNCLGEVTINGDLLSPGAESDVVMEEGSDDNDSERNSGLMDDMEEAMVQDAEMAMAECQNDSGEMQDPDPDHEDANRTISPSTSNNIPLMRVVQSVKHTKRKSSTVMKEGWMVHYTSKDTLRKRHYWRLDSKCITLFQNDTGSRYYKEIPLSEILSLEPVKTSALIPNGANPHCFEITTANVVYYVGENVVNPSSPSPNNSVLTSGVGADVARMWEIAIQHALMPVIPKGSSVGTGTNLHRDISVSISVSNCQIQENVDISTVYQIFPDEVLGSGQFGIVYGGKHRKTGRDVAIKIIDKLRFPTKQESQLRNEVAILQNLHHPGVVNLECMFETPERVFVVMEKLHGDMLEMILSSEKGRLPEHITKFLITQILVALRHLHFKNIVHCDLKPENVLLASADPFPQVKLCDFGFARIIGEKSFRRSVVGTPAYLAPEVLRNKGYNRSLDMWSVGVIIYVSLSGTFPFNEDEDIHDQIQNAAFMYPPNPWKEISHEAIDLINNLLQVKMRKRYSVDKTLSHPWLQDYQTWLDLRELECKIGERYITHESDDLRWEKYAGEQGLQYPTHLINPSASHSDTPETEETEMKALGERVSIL
# GALR2 ag = GALR2 receptor agonists, primary screen, cell-based; Galanin receptor type 2 (Homo sapiens), O43603; GALR2-expressing cells, agonist activation read-out; activation, %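 (tested at 5 µM)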; 140,000 compounds, 0.48% hits;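 active = above mean plus 3 SD of all compounds, about 5% in these data, not always enough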;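 note: 0% = vehicle buffer wells and 100% = reference agonist at full effect; tested in CHO reporter cells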
# INS promoter inh cell count = also measured in INS promoter inh; calls as there; normalized cell count, %; measured here: cell count, toxicity; reference of the scale not given here;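 cells exposed to compound for 48 h; stained nuclei by imaging scaled within each plate; lower means fewer cells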
# HSV replic up primary fold = second read-out of HSV replic up, no call of its own (marks repeat the call); fold increase; compound at 10 µM; measured here: primary screen fold increase 10 uM; tested in PC3 cells;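 GFP signal in the first replicate; 1 = infected wells without compound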
# The depositor's hits bear a star; i = inactive; ? = inconclusive; nt = no result given.
SMILES,INS promoter inh,INS promoter inh cell count,RGS16-Gao HTS,HSV replic up,HSV replic up primary fold,PKD1 kinase inh,GALR2 ag
O=C(Cc1ccccc1)N1CCNCC1,28,115,105,i,0.92,-1,nt
O=C1NC(=S)N/C1=C/c1cc([N+](=O)[O-])ccc1O,14,59,114,i,1.1,3,-1.2
CCOC(=O)Cc1csc(NC(=O)CCSc2ccccc2)n1,nt,nt,102,i,0.97,-1,nt
Cc1ccc(O)c(/C=N/NC(=O)c2[nH]ncc2Br)c1,-121,134,95,i,0.73,2,0.2
Cc1c(C(N)=O)sc2ncn(CC(=O)NCCc3ccccc3)c(=O)c12,nt,nt,101,i,1,0,nt
COc1ccc(NC(=O)N2CCN(S(C)(=O)=O)CC2)cc1,5,88,103,i,1,0,nt
Cc1nc2ccc(S(=O)(=O)NCC(=O)N3CCC(N4CCCCC4)CC3)cc2s1,-64,75,99,i,1,14,-1.1
Cc1ccnc(NC(=O)c2ccco2)n1,nt,nt,99,i,0.96,10,nt
COC(=O)c1cc(=O)n(Cc2cccs2)c(=Nc2ccc(F)cc2)s1,nt,nt,99,i,0.56,-2,nt
C(=N\n1cnnc1)/C1CCCCC1,nt,nt,106,i,0.92,0,-2.3
COc1ccc(CC(=O)NCC(=O)N/N=C/c2cc(Br)ccc2OC)cc1,nt,nt,98,i,0.71,nt,nt
C/C(=N\NC(=O)c1ccc(CSc2nncn2C)cc1)c1ccc(C#N)cc1,nt,nt,104,i,0.91,-5,0.5
Cc1ccsc1CNC1C2CC3CC(C2)CC1C3 (stereo not given),nt,nt,110,i,0.92,-2,nt
O=C(CCCN1C(=O)/C(=C/c2ccccc2Cl)SC1=S)NNC(=O)c1ccncc1,nt,nt,99,i,0.81,nt,nt
N#Cc1cc(-c2ccccc2)nc(N2CCNCC2)n1,nt,nt,101,i,0.77,nt,nt
Cc1ccc(C)c(NC2=NS(=O)(=O)c3ccccc32)c1,26,104,94,i,0.87,-10,-1.1
COC(=O)c1c(NS(=O)(=O)c2ccc(C)cc2)sc2c1CCC(C)C2 (stereo not given),19,125,79,nt,nt,-6,-2.3
CCCCOCCCNC(=O)COc1ccccc1,51,93,93,i,1.1,2,-0.5
CCCCCNC(=O)c1cc(S(=O)(=O)N2CCCCC2)ccc1F,-254,74,100,i,0.93,-9,0.2
CC(=O)Nc1ccc(C(=O)Cn2nnc3ccccc3c2=O)cc1,nt,nt,102,i,1.4,-4,-0.9
CCOc1ccc2c(c1)N(C(=O)CN1C(=O)CCC1=O)C(C)(C)C=C2C,-26,121,79,i,0.92,3,0.0
Cc1cc(C)cc(NC(=O)N2CCCCCCC2)c1,nt,nt,101,i,1,4,nt
O=C(Nc1ccc(S(=O)(=O)N2CCCCC2)cc1)c1ccc(CN2CCc3ccccc3C2)cc1,-3,92,103,i,0.94,4,-0.8
C/C(=N\N=C(c1ccccc1)c1ccccc1)c1cccs1,nt,nt,104,i,1.1,-3,-2.1
Cc1ccc(Nc2ncnc3sc(C)c(C)c23)cc1C,43,56,99,i,0.9,-3,-1.2

# The listing continues.
SMILES,INS promoter inh,INS promoter inh cell count,RGS16-Gao HTS,HSV replic up,HSV replic up primary fold,PKD1 kinase inh,GALR2 ag
Cc1ccccc1OCC(=O)NCC1CCCO1 (stereo not given),-17,122,99,i,0.9,5,-1.6
O=C1CSC(=Nc2ccccc2)N1,nt,nt,105,i,0.92,2,-1.6
CCOc1ccccc1NC(=O)CSc1nnc(-c2cnccn2)n1C,-36,137,102,i,1.1,6,0.0
CCCc1cc(NCc2ccccn2)n2nc(C)c(-c3ccccc3)c2n1,nt,nt,94,i,0.66,nt,nt
CCCCOc1ccc(/C=C/C(=O)OCC(=O)N2CC(=O)Nc3ccccc32)cc1OCC,22,114,100,i,0.91,11,-0.6
COc1ccc(-c2cc(C(=O)N3CCN(C(c4ccccc4)c4ccccc4)CC3)no2)cc1,nt,nt,96,i,1.2,2,-1.9
CC(=O)c1ccc(NC(=S)NCC(c2ccco2)N2CCCC2)cc1 (stereo not given),nt,nt,93,i,0.9,0,nt
Cc1c(O)nc(SC2CC(=O)N(c3ccccc3)C2=O)[nH]c1=O (stereo not given),0,75,101,i,1,-3,-2.3
CCOC(=O)CN1CC23C=CC(O2)C(C(=O)O)C3C1=O (stereo not given),nt,nt,109,i,0.97,14,-0.7
CCOC(=O)C1=C(c2ccccc2)O/C(=C(\C(=O)OC)C(F)(F)F)S1,38,157,98,i,0.87,2,-1.8
O=C(Nc1ncc(Cc2cccc(Cl)c2Cl)s1)C1CCCO1 (stereo not given),17,108,148,i,0.64,-3,nt
Cc1ccc(CNC(=O)CCCn2c(=O)[nH]c3ccccc3c2=O)cc1,nt,nt,100,i,1,-1,-0.7
Cc1cc(C)n2c(SCC(C)C)nnc2n1,62,112,100,i,0.98,-7,nt
N/C(=N\OC(=O)c1cccc([N+](=O)[O-])c1)c1cccnc1,-13,66,97,i,0.85,4,-0.2
COC(=O)CC1=NC(=O)CS1,nt,nt,103,i,1,-6,-1.4
O=C(OCC(=O)N1CCN(C(=O)c2ccco2)CC1)c1cc(-c2cccc(Br)c2)nc2ccccc12,-7,39,99,i,0.97,11,-0.7
Cc1cc(C(=O)Nc2ccon2)cs1,62,138,81,i,1.1,-2,-3.4
CCCCNC(=O)CSc1nc(CCC)nc2ccccc12,25,65,101,i,0.93,-3,nt
O=C(CSc1nc2ccc(NC(=O)CSc3nnnn3Cc3ccccc3)cc2s1)Nc1ccccc1,50,98,106,i,0.88,-2,-3.0
CCOc1cc(OCC)cc(C(=O)Nc2cccnc2)c1,-21,98,101,i,0.94,5,-2.6
CCOc1ccc(NC(=O)c2ccco2)cc1,-31,88,97,i,1.1,-16,-0.8
O=C(CN1CCN(Cc2ccccc2Cl)CC1)N/N=C/c1ccccn1,nt,nt,93,i,0.87,nt,nt
CC(=O)NC1=NC(=O)/C(=C/c2cc(C)n(-c3cccc(C(=O)O)c3)c2C)S1,39,90,97,?,nt,-8,nt
CN1CCN(c2nc(-c3cccs3)cc(C(F)(F)F)n2)CC1,nt,nt,73,i,0.97,8,-1.9
COC(=O)c1ccccc1NC(=O)CSc1nc(-c2ccco2)cc(C(F)(F)F)n1,nt,nt,102,i,0.69,9,-1.0

# Next section
SMILES,INS promoter inh,INS promoter inh cell count,RGS16-Gao HTS,HSV replic up,HSV replic up primary fold,PKD1 kinase inh,GALR2 ag
C[C@@H](C(=O)NCCCCCC(=O)O)n1nnc2ccccc2c1=O,nt,nt,102,i,0.93,nt,nt
NS(=O)(=O)c1cccc(NC(=O)COC(=O)Cc2ccc(S(=O)(=O)N3CCCCC3)s2)c1,nt,nt,107,i,1.1,-2,nt
CCOC(=O)Cn1c(=O)c2c(nc(N3CCCCC3)n2C)n(C)c1=O,nt,nt,102,i,1.1,-2,-1.3
CNC(=O)C(Sc1ccccc1)c1ccccc1 (stereo not given),-30,64,109,i,0.98,-3,-1.6
CCCn1nnc2c(=O)oc3ccccc3c21,nt,nt,113,i,1.1,2,-1.3
Cc1nc2scc(-c3cccs3)c2c(=O)n1N,nt,nt,71,i,0.96,-5,-1.7
COc1cccc(C2Nc3c(F)cc(Br)cc3C3C=CCC32)c1OC (stereo not given),-17,138,95,i,1.1,-8,-1.4
C[C@@H]1CN(Cc2nc(-c3cnccn3)no2)C[C@H](C)O1,nt,nt,102,i,0.88,-4,nt
CCC(C)NC(=O)C1c2ccccc2C(=O)N(c2ccc(OC)cc2)C1c1ccc(OC)cc1 (stereo not given),-16,120,96,i,0.67,4,-1.6
COc1ccc(N2C(=O)C3CCCN3C2c2cccc(F)c2)cc1Cl (stereo not given),nt,nt,41,i,0.81,-19,-3.9
CCc1nnc(NC(=O)C2CCN(c3cnccn3)CC2)s1,21,114,85,i,0.94,-11,-3.1
Cc1ccc2c(c1)-c1c(ssc1=S)C(C)(C)N2C(=O)CN1C(=O)c2ccccc2C1=O,nt,nt,99,i,1,-5,-2.2
CCCCN(C(=O)Cc1cccs1)c1nnc(-c2cccnc2)s1,6,160,105,i,0.99,-7,-1.9
Cc1ccccc1NC(=O)C1C2CC/C=C\CCC21 (stereo not given),nt,nt,104,i,1.1,0,0.0
Nc1nonc1-c1nc2ccccc2n1CC(=O)N1CCN(c2ccc(F)cc2)CC1,-7,83,97,i,0.89,-6,-3.0
CCCCn1c(-c2nn(C)c(C)c2Cl)n[nH]c1=S,11,106,109,i,1,-8,0.5
O=C(Cn1cnc2ccccc21)N/N=C/c1ccco1,-27,114,103,i,1.1,-8,-0.5
COc1ccc(/C(N)=N/OC(=O)Cc2ccc(OC)c(OC)c2)cc1,-210,104,100,i,0.93,2,-2.1
COc1ccc2c(c1)c(N=O)c(O)n2C,-9,62,79,i,1.1,-1,-0.9
CC1(C)Cc2c(sc3ncn4nc(-c5ccco5)nc4c23)CO1,-46,114,nt,nt,nt,-8,-1.2
CC(C)(C)NC(=O)NC12CC3CC(CC(C3)C1)C2,nt,nt,100,i,1.1,0,nt
Cc1csc2c(=O)n(CCO)c(=O)[nH]c12,nt,nt,97,i,1.1,nt,nt
O=C(CCC(=O)Nc1ccc(Br)cc1)N/N=C/c1cc([N+](=O)[O-])ccc1O,nt,nt,99,i,1.2,7,nt
CC(c1ccco1)N(C(=O)c1ccc(S(=O)(=O)N2CCCCC2)cc1)c1ccccn1 (stereo not given),11,96,96,i,1,-13,-3.1
CNC(=O)c1sc(SC)cc1-c1ccc(Cl)cc1,38,66,87,i,0.86,2,-3.4

# Four compounds from above, sorted by the value under PKD1 kinase inh, falling.
smiles	PKD1 kinase inh
CC(C)(C)NC(=O)NC12CC3CC(CC(C3)C1)C2	0
Cc1nc2scc(-c3cccs3)c2c(=O)n1N	-5
CC1(C)Cc2c(sc3ncn4nc(-c5ccco5)nc4c23)CO1	-8
COc1ccc(N2C(=O)C3CCCN3C2c2cccc(F)c2)cc1Cl (stereo not given)	-19

# Additional records.
SMILES,INS promoter inh,INS promoter inh cell count,RGS16-Gao HTS,HSV replic up,HSV replic up primary fold,PKD1 kinase inh,GALR2 ag
OCCN1CCN(c2nc(-c3ccccc3)nc3c2oc2ccccc23)CC1,-69,90,98,i,0.79,6,2.9
CCC1CCCN1Cn1cnc2c([nH]c3ccccc32)c1=O (stereo not given),nt,nt,145,nt,nt,-8,-2.3
Cc1ccc(C2(C(F)(F)F)NC(=O)N3CCCN=C3S2)cc1 (stereo not given),-215,29,124,nt,nt,-4,-0.4
COc1ccc2c(c1)c(C(C)=O)c(C)n2-c1ccccc1,-17,136,102,i,0.92,-6,0.1
CN(CC(=O)NNC(=O)c1cccnc1)S(=O)(=O)c1cc(Cl)ccc1Cl,21,79,98,i,0.95,6,nt
CCOCCn1c(SCCCc2ccccc2)nc2c1c(=O)[nH]c(=O)n2C,-8,103,99,i,1,-7,1.1
CN1C(=O)c2ccc(NC(=O)c3c(F)c(F)c(F)c(F)c3F)cc2C1=O,-40,89,83,i,0.95,-5,-3.2
CCCCCn1cnc2c(sc3nc4c(cc32)CSC(C)(C)C4)c1=O,nt,nt,102,i,0.98,-8,-0.8
Cc1nnc(Nc2ccccc2F)s1,nt,nt,102,i,0.86,nt,nt
Cc1nnc(SCC(=O)Nc2cc(-c3cc(C)c(C)cc3C)nn2-c2ccccc2)s1,-32,50,116,i,0.92,-5,-0.4
C/C(=N\N=C\c1ccccc1F)c1nnn(-c2nonc2N)c1C,-29,102,94,i,1.1,12,0.4
COc1ccccc1CN1CCCC(C(=O)N(C)Cc2ccccc2)C1 (stereo not given),-33,59,104,i,0.86,-11,-1.2
O=C(Nc1nc2ccccc2[nH]1)c1cc2ccccc2o1,0,68,96,i,0.97,-6,nt
O=C(COC(=O)C1CCN(C(=O)Nc2ccccc2)CC1)NCC(F)(F)F,nt,nt,99,i,0.81,-1,nt
CC1(C)CC(C2N3CC4(C)CN2CC(C)(C3)C4=O)CCO1 (stereo not given),-12,123,278,i,0.82,-10,-1.3
COC(=O)c1sccc1NC(=O)Cc1ccc(OC)cc1,-18,104,102,i,0.95,0,-1.1
CN(C(=O)CSc1nnc(Cc2cccc3ccccc23)n1N)C1CCS(=O)(=O)C1 (stereo not given),35,96,108,i,0.9,-9,-4.8
COC(=O)C1=C(C)Nc2nnnn2C1c1ccc(Cl)cc1Cl (stereo not given),-11,129,102,i,0.82,-4,1.4

# 2 entries from above, with tabs:
SMILES	INS promoter inh	INS promoter inh cell count	RGS16-Gao HTS	HSV replic up	HSV replic up primary fold	PKD1 kinase inh	GALR2 ag
CCC1CCCN1Cn1cnc2c([nH]c3ccccc32)c1=O (stereo not given)	nt	nt	145	nt	nt	-8	-2.3
COC(=O)c1sccc1NC(=O)Cc1ccc(OC)cc1	-18	104	102	i	0.95	0	-1.1
